Source: PubChem (Fisher Drug Discovery Resource Center)
NPYLR7 ag – activates Aedes aegypti NPYLR7 receptor. HEK293T NPYLR7/Galpha15, GCaMP6s calcium fluorescence. activation, % at 10 µM. 270,000 compounds, 0.15% hits; in the data active = activation above about 40%;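 also: 0% = vehicle and 100% = reference agonist at the receptor; some compounds past the cut are filed as inactive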
NPYLR7 ag max-min – further read-out of NPYLR7 ag, marked with its call; activation, %; measured here: Max-Min RFU normalised activation; some inactives read as strong as hits;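 span of the calcium signal over five minutes; 0% = vehicle and 100% = native peptide agonist; compound fluorescence can raise it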
Starred values were filed as active, the others as inactive; & = joins results of further samples. Not all compounds are listed, so the mix of outcomes need not match the whole.

Order of results: NPYLR7 ag | NPYLR7 ag max-min
1: Cc1ccc(COC2C[C@](OCc3ccccc3)(C(=O)NCC3CCCO3)C[C@H]3OC(C)(C)O[C@@H]23)cc1 (some centres undefined)
    0.2 | 13.3
2: CCCCCCC(=O)N(CC(=O)N1CCc2sccc2C1c1ccc(F)cc1)C1CC1 (centres undefined)
    16.0 | 14.9
3: Cc1ccsc1CN(C)Cc1cn[nH]c1C(=O)O
    -5.1 | -7.4
4: COc1ccccc1N1CCC(N2CCCC(N3CCc4ccccc4C3)C2)CC1 (centres undefined)
    18.9 | 7.4
5: COC(=O)c1ccc(Cn2ccnc2-c2nc[nH]c2C)cc1
    -1.6 | -2.5
6: O=C(Nc1cc(F)ccc1F)NC1CCc2[nH]c3ccccc3c2C1 (centres undefined)
    12.1 | 10.3
7: COc1ccccc1-n1c(C2C3CCCCC32)n[nH]c1=S (centres undefined)
    -8.5 | -10.7
8: O=C(Nc1ccc(OC(F)F)cc1)c1cc(-c2cccs2)on1
    0.9 | -1.3
9: NC(c1csc(Nc2nncc3ccccc23)n1)c1ccccc1Cl (centres undefined)
    -4.3 | -7.1
10: O=C(Nc1nccs1)c1cn(Cc2cccc(F)c2)nc1OCc1cccc(F)c1
    13.2 | 7.4
11: CC(C)c1ccc(NC(=O)CSC(C)c2nc3ccccc3c(=O)[nH]2)cc1 (centres undefined)
    0.0 | 0.0
12: COc1ccc(S(=O)(=O)NCC2CCCN(C(=O)c3sccc3C)C2)cc1 (centres undefined)
    7.4 | 9.8
13: Cc1cc(C)cc(CSc2nnc(NC(=O)Cc3ccccc3)s2)c1
    23.1 | 17.3
14: O=C(CSc1nnc(CNC(=O)c2cccs2)o1)NC1CCCC1
    1.8 | -0.6
15: CNC(=O)c1nnc2n1CCN(C(=O)C1CCCCC1)C2
    0.5 | -0.4
16: COCCCNC(=O)C(NC(=O)c1cccc(OC)c1)C1CCN(C(=O)Nc2ccc(C)cc2)CC1 (centres undefined)
    -8.6 | 0.3
17: O=C(O)c1cccc(CC2CCN(C(=O)Cc3ccccc3)C2)c1 (centres undefined)
    5.0 | 10.2
18: Cc1cnn(C(C)c2n[nH]c(=S)n2-c2cn(C)nc2C)c1 (centres undefined)
    1.5 | 51.0
19: CCn1c(C2CCCN(C(=O)c3c(C)[nH]c(C(C)=O)c3C)C2)nn(C)c1=O (centres undefined)
    3.2 | 2.0
20: Cc1ccc(NC(=O)CCN2C(=O)c3ccccc3C2=O)cc1
    3.8 | 2.6
21: O=c1[nH]c(=O)n(CC2CCCO2)c2nccc(-c3ccccc3)c12 (centres undefined)
    -1.3 | 39.8
22: CC(=O)NC1(c2noc(C3(S(=O)(=O)c4ccc(C)c(C)c4)CCCC3)n2)CCCCC1
    0.7 | 23.7
23: COc1ccc(S(=O)(=O)Nc2cc(OC)c(OC)c(OC)c2)cc1
    2.7 | 4.2
24: COCC(=O)Nc1c(C)nc2c(C)cccn2c1=O
    3.8 | 0.8
25: c1ccc(-c2cnc(CSc3n[nH]c4nc5ccccc5n34)o2)cc1
    9.1 | 6.7
26: CC1CN(C(=O)C2(N(C)C)CCC2)CCS1 (centres undefined)
    -0.7 | -3.1
27: Cc1oc(C)c(-c2ccoc2)c1C(=O)NC1C[C@@H]2C[C@H]([C@H]1C)C2(C)C (some centres undefined)
    -19.4 | -27.7
28: COc1ccc(C)c2sc(N(Cc3cccnc3)C(=O)COc3ccccc3)nc12
    -5.4 | -4.8
29: COc1ccc(Cl)cc1CC(=O)Nc1ccncc1
    -0.4 | 0.3
30: C=CCNC(=O)NC(=O)CSc1nnc(C(F)(F)F)n1C
    10.9 | 9.6
31: O=C(Nc1ccc(N2CCCC2)nc1)c1ccc(Cl)cc1F
    5.6 | 2.9
32: CCOC(=O)C1CCCN(C(=O)CC(c2cccc(C(F)(F)F)c2)c2cn(C)c3ccccc23)C1 (centres undefined)
    14.5 | 11.7
33: COC(=O)c1ccccc1S(=O)(=O)N1CCC(C(=O)NC2CCCCC2C)CC1 (centres undefined)
    12.8 | 10.6
34: CCN(CC)CCN1C(=O)C(=O)C(=C(O)c2ccc(C)cc2)C1c1cc(OC)c(OC)c(OC)c1 (centres undefined)
    -1.1 | 3.7
35: O=C(NCc1cccc(Cl)c1)c1ccc(-c2cc(-c3cccc4ccccc34)[nH]n2)cc1
    -1.0 | -0.6
36: Cc1ccsc1-c1nc(CN2CCCC(OCc3ccccc3)C2)c(C)o1 (centres undefined)
    5.8 | 1.0
37: Cc1cc(NC2CCCCC2)n2nc(C)c(-c3ccccc3)c2n1
    -1.3 | -2.5
38: CCC(=O)Nc1ccc(N(C)C)c(CN(Cc2ccco2)C(C)=O)c1
    -0.7 | 0.7
39: Cc1[nH]c2c(CNC(=O)CCN3CCCO3)cc(F)cc2c1C
    15.6 | 6.0
40: CCn1ccnc1CN(C)Cc1ccc(-c2nc(C(F)(F)F)c(C)c(=O)[nH]2)cc1
    -2.7 | 9.3
41: Cn1c(=O)n(CCN2CCOCC2)c(=O)c2c1nc1n2CCN1c1ccc(Oc2ccccc2)cc1
    6.8 | 5.4
42: COC(=O)[C@H]1CN(S(C)(=O)=O)CCN1
    -12.1 | -13.5
43: COc1cccc2ccc(CN(Cc3cccnc3)CC3CCN(C4CCCC4)CC3)nc12
    1.6 | -3.5
44: Cc1nnsc1CN(C)S(=O)(=O)NCc1ccccc1
    6.7 | 6.2
45: CNc1ccc(C(=O)N2CCOC(COc3ccc(C)cc3)C2)cc1 (centres undefined)
    2.6 | 3.7
46: Cc1sc(NC(=O)N2CCC(C(N)=O)CC2)c(C#N)c1C
    -0.8 | -0.9
47: COc1cc(Cl)c(NC(=O)c2cc(C)cc(C)c2)cc1OC
    5.6 | 3.9
48: N#Cc1ccc(Cl)cc1NC(=O)C(=O)NCC1CCN(Cc2cccs2)CC1
    -2.0 | -3.5
49: O=C(CSc1ccc(-c2ccc3c(c2)OCO3)nn1)Nc1ccc2c(c1)OCO2
    -2.3 | -3.0
50: CC(C)C(=O)N1CCC1(C)C(=O)Nc1ccccc1C(C)(C)C (centres undefined)
    -1.7 | -1.3
51: COC(=O)c1ccc(CN2CCNC(=O)C2)cc1
    17.1 | 10.1
52: Cc1ccc(S(=O)(=O)N[C@@H](Cc2ccccc2)C(=O)Nc2ccc(OC3CCN(C(=O)OC(C)(C)C)C3)cc2)cc1 (some centres undefined)
    13.7 | 6.2
53: CN(Cc1cn(C)nc1-c1cccc(Cl)c1)C1CCOCC1
    17.7&-4.0 | 6.6&-8.0
54: N#CCSc1nn(-c2ccc(F)cc2)c(=S)s1
    0.5 | 5.0
55: COc1ccccc1NC(=O)N1CCSC1c1ccc2c(c1)OCCO2 (centres undefined)
    9.7 | 10.8
56: CCc1ccc(CNC(=O)c2cc(F)ccc2Br)s1
    4.0 | 6.3
57: CCOc1ccccc1C(=O)Nc1ccc(N2CCN(C(=O)C3COc4ccccc4O3)CC2)nc1 (centres undefined)
    2.3 | 14.9
58: Cc1nc(C(C)C)sc1C(=O)Nc1ccc2oc(=O)[nH]c2c1
    -2.7 | -4.0
59: c1ccc2sc(Cn3cnnc3)nc2c1
    3.1 | 2.6
60: O=C1N=C2OC(C(=O)Nc3cccc(Cc4ccccc4)c3)=CN2CCN1
    3.1 | 1.4

#61 CCCc1nc(NCc2nnnn2-c2ccccc2)c2cnn(C)c2n1
#62 Cc1ccn2c(=O)nc(SCC(=O)NC3CCCC3)nc2c1
#63 CC1(C(=O)NS(=O)(=O)c2cccc(Cl)c2)CCN1C(=O)C1(c2ccccc2)CCCC1 (centres undefined)
#64 C=C1CC(=O)C2=C(C)C[C@H](OC(=O)CCC)C3[C@H](OC(=O)[C@H]3C)C12 (some centres undefined)
#65 Cc1ccc(OCC(=O)NNC(=O)CCSc2ccc(F)cc2)c(C)c1

| compound no. | 61 | 62 | 63 | 64 | 65 |
| --- | --- | --- | --- | --- | --- |
| NPYLR7 ag | 24.0 | 2.8 | 1.0 | -1.9 | 3.4 |
| NPYLR7 ag max-min | 8.0 | 0.2 | 0.7 | -2.3 | 2.1 |

#66 COc1ccc(-c2nnn(CC(=O)Nc3ccc(C)c(F)c3)n2)cc1OC
#67 Cc1cccc(N2CCC(NCc3nc(-c4cccnc4)no3)CC2)c1C
#68 O=C(COC(=O)c1cc(=O)[nH]c2ccccc12)c1ccc(Cl)cc1Cl
#69 CS(=O)(=O)c1ccc(-c2cnn3cccnc23)cc1
#70 O=C(CSc1nc2c(c(=O)n1-c1ccc(Br)cc1)SCC2)OCc1ccccc1

| compound no. | 66 | 67 | 68 | 69 | 70 |
| --- | --- | --- | --- | --- | --- |
| NPYLR7 ag | 8.0 | 21.2 | 22.6 | 13.7 | 1.1 |
| NPYLR7 ag max-min | 5.3 | 13.6 | 23.6 | 9.2 | 45.3 |

#71 O=C(Nc1ccc(F)cc1F)c1cc2nc(-c3ccc(Br)cc3)cc(C(F)(F)F)n2n1
#72 O=C(Cn1nnn(-c2cccs2)c1=O)N1CCCc2cc(C(F)(F)F)ccc21
#73 CC(C)NC(=O)C1(C)CCN1C(=O)c1c(F)cccc1F (centres undefined)
#74 Cc1cc2c(c(N)c1C)C(C)CC21CCCCC1 (centres undefined)
#75 NS(=O)(=O)c1ccc(NC(=O)CSc2ncn[nH]2)cc1

| compound no. | 71 | 72 | 73 | 74 | 75 |
| --- | --- | --- | --- | --- | --- |
| NPYLR7 ag | 2.7 | 8.3 | -5.3 | 0.2 | 1.6 |
| NPYLR7 ag max-min | 0.0 | 8.4 | -6.3 | 37.3 | -1.3 |

#76 O=C(c1ccc(F)cc1F)N1CCC(Cc2ccc(C(F)(F)F)cc2)CC1
#77 O=C(CCc1ccsc1)N1CCOC(Cc2ccccc2Cl)C1 (centres undefined)
#78 COc1ccccc1CN1CC(C(=O)NCC2(N3CCCCC3)CCCC2)CCC1=O (centres undefined)
#79 CC(C)n1cnnc1CN(C)C(=O)CC1C(=O)NCCN1CC1CCCCC1 (centres undefined)
#80 Cc1c(S(=O)(=O)CCNC(=O)Nc2ccccc2)c2ccccc2n1Cc1ccccc1

| compound no. | 76 | 77 | 78 | 79 | 80 |
| --- | --- | --- | --- | --- | --- |
| NPYLR7 ag | 23.1 | 23.2 | 2.3 | 5.5 | 2.4 |
| NPYLR7 ag max-min | 26.7 | 10.7 | 1.8 | 0.4 | 7.1 |

#81 CCCc1nc(N2CCN(C(=O)c3ccc(C)c([N+](=O)[O-])c3)CC2)c2c3c(sc2n1)CN(CC)CC3
#82 CC(C)=CCc1c(O)cc(C)oc1=O
#83 O=C(Nc1ccn(CC(F)F)n1)c1ccc2c(c1)OCO2
#84 COc1cccc(-c2nc3ccc(NC(=O)COC(C)=O)cn3n2)c1
#85 Cc1ccc(-c2n[nH]c(Cc3ccccc3)n2)cc1NC(=O)C1CCCO1 (centres undefined)

| compound no. | 81 | 82 | 83 | 84 | 85 |
| --- | --- | --- | --- | --- | --- |
| NPYLR7 ag | -1.9 | -12.1 | 4.2 | 7.9 | 15.9&18.8 |
| NPYLR7 ag max-min | -1.8 | -19.6 | 2.2 | -3.6 | 5.7&8.3 |

#86 Nc1ccc(N2CCN(C3CC3)CC2)cc1
#87 COCCCNC(=O)c1cc(NC(=O)Nc2ccc(C(F)(F)F)cc2)ccc1N1CCc2ccccc2C1
#88 CN1C[C@H](NC(=O)c2ccc(NCc3nc4ccccc4n3C)cc2)C[C@H]1CO
#89 CC(c1ccc(OC(F)(F)F)cc1)N1CCCC(CNS(C)(=O)=O)C1 (centres undefined)
#90 COc1ccc(OC)c2c1CN(C(=O)NC1CCN(Cc3ccccc3)CC1)CC2O (centres undefined)
#91 COCc1cc(N2CCCCC2C)nc(SCc2cccc(C(=O)O)c2)n1 (centres undefined)
#92 CC(C)N=c1scc(-c2ccc(F)cc2)n1/N=C1\C(=O)Nc2c(Cl)cc(Cl)cc21
#93 CCOc1ccc(C(=O)Nc2c3c(nn2CC(=O)NCc2ccccc2)CSC3)cc1

| compound no. | 86 | 87 | 88 | 89 | 90 | 91 | 92 | 93 |
| --- | --- | --- | --- | --- | --- | --- | --- | --- |
| NPYLR7 ag | 25.7 | -6.0 | 7.7 | 5.2 | -1.1 | -0.4 | 16.7 | -3.5 |
| NPYLR7 ag max-min | 16.3 | -7.7 | 6.0 | 4.6 | -5.1 | 10.4 | 4.5 | 1.4 |

Structural class: the compounds so far with a Cl atom.
#9 NC(c1csc(Nc2nncc3ccccc23)n1)c1ccccc1Cl (centres undefined)
#29 COc1ccc(Cl)cc1CC(=O)Nc1ccncc1
#31 O=C(Nc1ccc(N2CCCC2)nc1)c1ccc(Cl)cc1F
#35 O=C(NCc1cccc(Cl)c1)c1ccc(-c2cc(-c3cccc4ccccc34)[nH]n2)cc1
#47 COc1cc(Cl)c(NC(=O)c2cc(C)cc(C)c2)cc1OC
#48 N#Cc1ccc(Cl)cc1NC(=O)C(=O)NCC1CCN(Cc2cccs2)CC1
#53 CN(Cc1cn(C)nc1-c1cccc(Cl)c1)C1CCOCC1

| compound no. | 9 | 29 | 31 | 35 | 47 | 48 | 53 |
| --- | --- | --- | --- | --- | --- | --- | --- |
| NPYLR7 ag | -4.3 | -0.4 | 5.6 | -1.0 | 5.6 | -2.0 | 17.7&-4.0 |
| NPYLR7 ag max-min | -7.1 | 0.3 | 2.9 | -0.6 | 3.9 | -3.5 | 6.6&-8.0 |

#63 CC1(C(=O)NS(=O)(=O)c2cccc(Cl)c2)CCN1C(=O)C1(c2ccccc2)CCCC1 (centres undefined)
#68 O=C(COC(=O)c1cc(=O)[nH]c2ccccc12)c1ccc(Cl)cc1Cl
#77 O=C(CCc1ccsc1)N1CCOC(Cc2ccccc2Cl)C1 (centres undefined)
#92 CC(C)N=c1scc(-c2ccc(F)cc2)n1/N=C1\C(=O)Nc2c(Cl)cc(Cl)cc21

| compound no. | 63 | 68 | 77 | 92 |
| --- | --- | --- | --- | --- |
| NPYLR7 ag | 1.0 | 22.6 | 23.2 | 16.7 |
| NPYLR7 ag max-min | 0.7 | 23.6 | 10.7 | 4.5 |
